Assay outcomes (PubChem)
Rango dissoc inh: qHTS Assay for Inhibitors of RanGTP induced Rango (Ran-regulated importin-beta cargo) - Importin beta complex dissociation. 340,000 tested, 0.071% active. Snurportin-1 (Homo sapiens) + GTP-binding nuclear protein Ran (Homo sapiens) + Importin …. Biochemical FRET Rango-importin beta, RanGTP-induced dissociation. Potency, µM (series often up to 46.1 µM), inactives show top-dose activity change, negative = inhibition; active means falling FRET ratio curve, often poorly fitted, with flat reads before Ran was added; inconclusive means other falling curves, or compound fluorescence or quenching; inactive means flat or rising ratio curve;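 note: potency is the fitted concentration of half-maximal effect; % of control where 0% means no effect; nearly all actives have a fitted effect of over 45% in size; -100% = wells without RanGTP and RCC1; the record marks most hits as doubtful in a second field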
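Recombinant Rango FRET biosensor (EYFP–snurportin 1 IBB–cerulean CFP10) at 0.1 uM premixed with 0.25 uM importin beta in PBS, 1 mM DTT, 0.02% Tween-20, 0.1% BSA. Compound added 5 min; RanGTP-RCC1 (0.6 uM Ran, 2 mM GTP, 0.2 uM RCC1) then triggers release, read at 45 min.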
Rango complex inh: qHTS Assay for Inhibitors of Rango (Ran-regulated importin-beta cargo) - Importin beta complex formation. Potency, µM (doses to about 92.2 µM), without a hit: at the highest dose inhibition of complex formation. Rango CFP/YFP FRET sensor + importin beta, 45 min. Importin subunit beta-1 (Homo sapiens), Q14974. 340,000 tested, 0.031% active. AID 540263, 2011; active = rising FRET ratio curve, often small or poorly fitted; inconclusive = mostly compound fluorescence or quenching in the first reads; inactive = flat curves in all reads;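 note: potency is the fitted concentration of half-maximal effect; 0% = DMSO wells and 100% = buffer wells lacking importin beta; nearly all actives have a fitted effect of over 15% in size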
Target sequence (Q14974 whole entry, looked up): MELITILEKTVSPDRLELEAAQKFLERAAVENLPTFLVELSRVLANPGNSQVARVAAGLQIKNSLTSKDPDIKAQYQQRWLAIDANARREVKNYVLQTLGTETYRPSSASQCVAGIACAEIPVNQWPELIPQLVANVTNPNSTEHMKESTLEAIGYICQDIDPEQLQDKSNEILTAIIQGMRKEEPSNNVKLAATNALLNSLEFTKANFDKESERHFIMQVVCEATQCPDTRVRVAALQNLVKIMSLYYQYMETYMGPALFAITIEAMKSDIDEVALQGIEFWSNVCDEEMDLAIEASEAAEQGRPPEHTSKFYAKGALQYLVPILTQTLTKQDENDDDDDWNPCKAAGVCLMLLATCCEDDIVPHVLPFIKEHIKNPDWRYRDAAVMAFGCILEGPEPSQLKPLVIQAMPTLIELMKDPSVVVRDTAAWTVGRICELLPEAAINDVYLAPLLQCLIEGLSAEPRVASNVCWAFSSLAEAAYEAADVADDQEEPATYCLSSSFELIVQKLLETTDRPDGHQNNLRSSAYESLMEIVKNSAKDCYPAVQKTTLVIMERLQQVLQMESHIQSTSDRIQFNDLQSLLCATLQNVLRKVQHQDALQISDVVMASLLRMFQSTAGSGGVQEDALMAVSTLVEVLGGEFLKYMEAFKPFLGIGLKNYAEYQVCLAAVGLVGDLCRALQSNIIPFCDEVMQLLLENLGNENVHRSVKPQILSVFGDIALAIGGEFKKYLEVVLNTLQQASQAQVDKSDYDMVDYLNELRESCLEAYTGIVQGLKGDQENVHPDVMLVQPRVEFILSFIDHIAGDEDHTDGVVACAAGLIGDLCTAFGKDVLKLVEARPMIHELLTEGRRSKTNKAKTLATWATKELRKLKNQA
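FRET biosensor (snurportin 1 IBB flanked by EYFP and cerulean), 50 nM, with compound 5 min, then 0.125 microM importin beta in PBS, 1 mM DTT, 0.02% Tween-20, 0.1% BSA. CFP/YFP ratio read after 45 min at room temperature; pre-read flags interference.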
GLA inh pH 4.5: qHTS Assay for Inhibitors of Human alpha-Galactosidase at pH 4.5; Alpha-galactosidase A (Homo sapiens), P06280; purified enzyme, 4-MU-alpha-Gal fluorescence, pH 4.5; activity change, negative = inhibition, % at 105 µM; 230,000 tested, under 10 active; inconclusive = small, poorly fitted or top-dose-only inhibition, or a rising curve; inactive = flat fitted curve, though single readings scatter; no compound was filed as active;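 note: 0% = full activity with enzyme and -100% = basal without enzyme; dose as in the result columns while the protocol names 77 µM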
miR-21 FLuc: qHTS Assay for Modulators of miRNAs and/orActivators of miR-21. HeLa miR-21 FLuc reporter, luciferase, 48 h. Potency, µM (series often up to 38.3 µM), without a hit: at the highest dose reporter change, positive = more light. 340,000 tested, under 10 active. AID 2288, 2010; active = well fitted rising curve with a large enough effect; inconclusive = small, poorly fitted or top-dose-only effect; inactive = no such curve, though single readings can be large or run the other way;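 note: % of control where 0% means no effect; miR-21 action dims this reporter so a rising signal means less miR-21 action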
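HeLa miR-21-FLuc reporter line, endogenous miR-21; 2000 cells/well in DMEM/10% FBS; compound titration up to ~40uM final, 48 h, 37 degree Celsius; luciferase detection reagent, 15 min lysis, CCD luminescence.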
* = called active by the depositor; & = joins results of further samples.

`CCN1C[C@]2(C)CC[C@H](OC)[C@]34C2[C@H](OC(C)=O)[C@@]2(OCO[C@@]25C[C@H](OC)[C@H]2C[C@]3(O)C5[C@H]2OC)[C@@H]14` gave Rango dissoc inh -6%, Rango complex inh -0.5% and miR-21 FLuc -2%.
For CC(C)OC(=O)C1C(=O)NC2(C)CC1c1ccccc1O2 (stereo not given) the results were Rango dissoc inh 2%, Rango complex inh -4.3%, GLA inh pH 4.5 -2 and miR-21 FLuc -1%.
O=C(N/N=C/c1c(O)n(CCc2ccccc2)c(=O)[nH]c1=O)c1ccccc1 was read as Rango dissoc inh -3%, Rango complex inh 1.0%, GLA inh pH 4.5 -5 and miR-21 FLuc -25%.
For COCCNC(=O)N1[C@H]2CC[C@@H]1C(C(=O)OC)=C(c1ccc(OC)c(OC)c1)C2 the results were Rango dissoc inh 3% and Rango complex inh -3.7%.
COc1ccc(C(=O)C2CCCN(Cc3ccon3)C2)c(OC)c1 (stereo not given) was read as Rango dissoc inh 0%, Rango complex inh -0.6%, GLA inh pH 4.5 2 and miR-21 FLuc 1%.
`CC(C)(C)c1ccc(C(=O)C2CCCN(C3CCC3)C2)cc1` (stereo not given) gave Rango dissoc inh 2%, Rango complex inh 0.2%, GLA inh pH 4.5 -2 and miR-21 FLuc 1%.
For CC(=O)O[C@@H]1/C=C/[C@](C)(O)C[C@@H](C)C/C=C/[C@H]2[C@@H]3O[C@]3(C)[C@@H](C)[C@H]3[C@H](Cc4ccccc4)NC(=O)[C@@]312 the results were Rango dissoc inh 4% and Rango complex inh 0.1%.
For Cc1ccc(Cn2nc(C)c(C=O)c2Cl)cc1 the results were Rango dissoc inh -1%, Rango complex inh -3.1%, GLA inh pH 4.5 1 and miR-21 FLuc 6%.
`NC(Cc1nc2ccccc2[nH]1)c1ccc(Cl)cc1` (stereo not given) gave Rango dissoc inh 1%, Rango complex inh -1.1%, GLA inh pH 4.5 -13 and miR-21 FLuc -29%.
Screening Cc1ccc(-n2c(C)cc(/C=C3\C(=O)NC(=O)N(C)C3=O)c2C)cc1C returned Rango dissoc inh -17%, Rango complex inh -0.4%, GLA inh pH 4.5 -2 and miR-21 FLuc -10%.
Screening COc1ccccc1CNCCc1ccc(F)cc1 returned Rango dissoc inh -11%, Rango complex inh 6.8% and miR-21 FLuc -19%.
CN(Cc1ccccc1)C(=O)CN1CCCC1=O was read as Rango dissoc inh 13%, Rango complex inh -2.9% and miR-21 FLuc -2%.
`C/C(CC(c1ccccc1)c1c(O)c2ccccc2oc1=O)=N\NC(N)=S` (stereo not given) gave Rango dissoc inh -10%, Rango complex inh -0.3%, GLA inh pH 4.5 1 and miR-21 FLuc 2%.
`COc1ccc(OC)c(N2C(=O)CC(=O)NC2=O)c1` gave Rango dissoc inh 1%, Rango complex inh 0.4% and miR-21 FLuc -1%.
O=C(Nc1ccc(Br)cc1)N1C[C@H]2C[C@@H](C1)c1cccc(=O)n1C2 was read as Rango dissoc inh -9%, Rango complex inh -3.9% and miR-21 FLuc 0%.
CCN1CCN(Cc2nnnn2C(C)(C)C)CC1 was read as Rango dissoc inh 8%, Rango complex inh 0.7%, GLA inh pH 4.5 2 and miR-21 FLuc -3%.
For Cn1c(O)c(Cc2cccc(Cl)c2Cl)c(=O)n(C)c1=O the results were Rango dissoc inh -10%, Rango complex inh -0.1% and miR-21 FLuc 3%.
Screening O=C(Nc1ccccc1OC(=O)N1CCOCC1)N1CCOCC1 returned Rango dissoc inh -7%, Rango complex inh -0.6%, GLA inh pH 4.5 -1 and miR-21 FLuc -1%.
`CCCCn1c(=O)c(C(=O)Nc2ccccc2F)c(O)c2ccccc21` gave Rango dissoc inh -1%, Rango complex inh 0.4% and miR-21 FLuc -12%.
For CN1CC2=CC(O)CC3Oc4c(O)ccc(c4[C@]23C)C1 (stereo not given in full) the results were Rango dissoc inh 1% and Rango complex inh 2.4%.
`C[C@]12CCC3C(CC[C@H]4C[C@@H](O)CC[C@]34C)C1C/C(=N/O)[C@@H]2O` (stereo not given in full) gave Rango dissoc inh 1% and Rango complex inh 2.3%.
`COc1cc(/C=C/[N+](=O)[O-])ccc1O` gave Rango dissoc inh 0%, Rango complex inh -0.4%, GLA inh pH 4.5 -7 and miR-21 FLuc inconclusive.
O=C(C1CC(=O)N(C2CCCC2)C1)N1CCC2(CC1)OCCO2 (stereo not given) was read as Rango dissoc inh 2%, Rango complex inh 0.6%, GLA inh pH 4.5 6 and miR-21 FLuc -10%.
Screening Cc1c(Cl)cccc1NC(=S)N1CC2CC(C1)c1cccc(=O)n1C2 (stereo not given) returned Rango dissoc inh -11%, Rango complex inh -4.1%, GLA inh pH 4.5 -5 and miR-21 FLuc 0%.
For Cc1cc(C=C2C(=O)NC(=S)NC2=O)c(C)n1-c1ccc2c(c1)OCO2 the results were Rango dissoc inh 20%, Rango complex inh 5.8%, GLA inh pH 4.5 -11 and miR-21 FLuc -8%.
For COc1cc2ccc(=O)oc2c2ccoc12 the results were Rango dissoc inh 15%, Rango complex inh 6.3%, GLA inh pH 4.5 5&-2 and miR-21 FLuc -1%.
`CCCCC(=O)N/N=C/c1c(O)n(-c2cccc3ccccc23)c(=O)[nH]c1=O` gave Rango dissoc inh -8%, Rango complex inh -3.7%, GLA inh pH 4.5 -8 and miR-21 FLuc -9%.
`CN1C(=O)C(=Cc2ccc(N3CCOCC3)o2)C(=O)N(C)C1=O` gave Rango dissoc inh 0%, Rango complex inh 6.1%, GLA inh pH 4.5 -4 and miR-21 FLuc -7%.
`CC(=O)c1cn(CC(=O)NCCc2c[nH]c3ccccc23)c2ccccc12` gave Rango dissoc inh -8%, Rango complex inh -2.9% and miR-21 FLuc 21%.
COC(=O)C1=C(c2ccccc2)C[C@@H]2CC[C@H]1N2C(=O)NC1CC1 was read as Rango dissoc inh -9% and Rango complex inh -1.2%.
O=C(COC(=O)Cc1ccccc1)Nc1cc(S(=O)(=O)N2CCCCC2)ccc1Cl was read as Rango dissoc inh -4% and Rango complex inh -0.5%.
Cc1nc2cc(C(F)(F)F)ccc2n1C1CCN(Cc2nnnn2CCc2ccccc2)CC1 was read as Rango dissoc inh -1%, Rango complex inh 3.3%, GLA inh pH 4.5 -4 and miR-21 FLuc 2%.
Screening CC(Cc1ccccc1)NC(=O)c1ccc(N)cc1 (stereo not given) returned Rango dissoc inh -2%, Rango complex inh 1.6% and miR-21 FLuc -55%.

Compounds listed so far containing a Cl atom (5):
For Cc1ccc(Cn2nc(C)c(C=O)c2Cl)cc1 the results were Rango dissoc inh -1%, Rango complex inh -3.1%, GLA inh pH 4.5 1 and miR-21 FLuc 6%.
`NC(Cc1nc2ccccc2[nH]1)c1ccc(Cl)cc1` (stereo not given) gave Rango dissoc inh 1%, Rango complex inh -1.1%, GLA inh pH 4.5 -13 and miR-21 FLuc -29%.
For Cn1c(O)c(Cc2cccc(Cl)c2Cl)c(=O)n(C)c1=O the results were Rango dissoc inh -10%, Rango complex inh -0.1% and miR-21 FLuc 3%.
Screening Cc1c(Cl)cccc1NC(=S)N1CC2CC(C1)c1cccc(=O)n1C2 (stereo not given) returned Rango dissoc inh -11%, Rango complex inh -4.1%, GLA inh pH 4.5 -5 and miR-21 FLuc 0%.
O=C(COC(=O)Cc1ccccc1)Nc1cc(S(=O)(=O)N2CCCCC2)ccc1Cl was read as Rango dissoc inh -4% and Rango complex inh -0.5%.

Only part of the results is shown, so the mix of outcomes need not match the whole.
